Assay outcomes from PubChem.
HTT prom inh – Primary qHTS for Identification of Small Molecule Inhibitors of Huntingtin Promoter Activity; HEK293 HTT promoter firefly luciferase reporter (activity 0% = vehicle and -100% = no light), 24 h; Potency, µM (doses to about 57.5 µM), for the others: top-dose activity change, negative = inhibition, usual class: inhibitors; 48,000 compounds, 0.93% hits; active = well fitted inhibition curve with a large enough effect; inconclusive = small, poorly fitted or top-dose-only effect; inactive = no such curve, though single readings can be large or run the other way; also: nearly all actives have a fitted effect of over 50% in size
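HEK293 luciferase promoter-reporter cells (2,500/well) plated 24 h, then compounds added at up to 57.5 uM final for 24 h at 37 °C. Firefly luminescence by Dual-Glo, normalized to vehicle (0%) and zero RLU (-100%).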
PMP22 txn – Cell-based coincidence reporter assay to measure PMP22 gene transcription in S16 Pmp22-F2sN cells - Primary screen | S16 Pmp22-F2sN Schwann cells (luciferase reporters placed in the Pmp22 gene), FLuc/NLuc coincidence luminescence, 24 h | Potency, µM (top dose mostly 57.5 µM), for inactives: at the top dose activity change, negative = inhibition, most hits filed as inhibitors | 43,000 compounds, 2% hits; active = clear falling dose curves in both reporters; inconclusive = both reporters move, but less clearly or upward; inactive = either reporter flat; the % is the NLuc reporter signal; also: % is scaled to controls: 0 for no effect and ±100 for the full control effect; some results filed as inactive show a strong effect at the top dose
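S16 Schwann cells carrying FLuc/NLuc coincidence reporter in the Pmp22 3' UTR treated with compound 24 h at 37C; FLuc then NLuc luminescence read sequentially by dual-luciferase reagents.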
An asterisk follows results filed as active; ? = inconclusive; nt = no result given; [ ] = remark or other dose. Potency is read from the fitted curve at half-maximal effect.

Molecule | HTT prom inh | PMP22 txn
COc1ccc(NS(=O)(=O)c2ccc3c(c2)NC(=O)CCS3)c(OC)c1 | -34.8% | ?
Cc1cc(NC(=O)c2cccc(Cl)c2)ccc1-c1cc2ccccc2oc1=O | -10.3%[11.5 µM] | -99.6%
Cc1ccc(NC(=O)C2CCN(c3nnc(C)c4c(C)n(-c5ccccc5)nc34)CC2)c(Cl)c1 | -15.1% | -4.0%
CC(=O)N[C@@H](CS)C(=O)O | 5.6% | nt
CCOc1ccccc1-n1nnc(-c2nc(-c3ccccc3)no2)c1N | 36.6%[activator] | -8.3%
COc1ccc(N2CCN(C(=O)c3ccc4c(c3)CCN4S(C)(=O)=O)CC2)cc1 | -9.9% | ?
O=C(CSc1cn(CC(=O)N2CCCCC2)c2ccccc12)Nc1ccccc1 | -28.9% | -15.6%
C(=C\c1ccccc1)/CN1CCN(C(c2ccccc2)c2ccccc2)CC1 | 0.9% | nt
COc1ccc(CNC(=O)CN2C(=O)c3cccnc3Oc3ccc(C)cc32)cc1 | 6.1% | -5.8%
CCS(=O)(=O)c1ccc(OC)c(C(=O)OC)c1 | 3.0% | nt
COc1cc(NS(=O)(=O)c2c(C)nc3sc(C)c(C)n3c2=O)cc(OC)c1 | -14.1% | -20.9%
CCCn1c2ccccc2c2cnn(CC(=O)NCCc3ccc(S(N)(=O)=O)cc3)c(=O)c21 | -7.6% | -24.9%
COc1ccc(C(=O)Oc2cc(-c3ccc(OC)c(OC)c3)cc(=O)c3c(C)oc(C)c23)cc1 | -25.9% | -72.9%
CCc1nonc1NC(=O)c1oc2cc(C)c(Cl)cc2c1C | -21.5% | -9.0%
Cc1cccc(NS(=O)(=O)c2ccc(Cl)c(C(=O)Nc3ccccc3C)c2)c1 | -32.6% | -14.3%
Cc1cccc(N(C)S(=O)(=O)c2nnc(NC(=O)c3cccs3)s2)c1 | -11.6% | -13.4%
COc1ccc(N(Cc2cc3cc(OC)ccc3[nH]c2=O)C(=O)c2cccc(Cl)c2)cc1 | 1.3% | -14.1%
CN(C)c1ccc(-n2c(CCC(=O)O)ccc2-c2ccccc2)cc1 | -6.2% | -22.3%
O=C(C=Cc1ccc(/C=C/C(=O)Nc2ccc(C3=NCCN3)cc2)cc1)Nc1ccc(C2=NCCN2)cc1 | -6.0% | nt
Cc1cc(C)n2nc(SCC(=O)Nc3ccc(O)cc3)nc2n1 | -6.3% | -19.0%
CCOC(=O)c1ccc(NC(=O)CSc2cn(CC(=O)N3CCCC3)c3ccccc23)cc1 | -28.2% | ?
Cc1ccc(/C=C(\C#N)c2nc3ccccc3c(=O)[nH]2)cc1 | 5.2% | -17.3%
O=C(/C=C/c1cn(CC(O)CN2CCCCCC2)c2ccccc12)c1ccccc1 (stereo not given) | -6.1% | ?
O=C(NCC1CCN(Cc2ccc(F)cc2)CC1)c1cc2ccc3cccnc3c2[nH]1 | -4.2% | ?
CCc1ccccc1NC(=O)Cn1nnc(C(=O)Nc2ccc(C)c(F)c2)c1N | 1.2% | -3.7%
Nc1ncc(S(=O)(=O)NCc2cccc(Cl)c2)cn1 | -1.5% | -4.1%
COc1ccccc1Nc1nn2c(=O)c3ccc(C(=O)N4CCCCC4)cc3nc2s1 | -13.7% | -17.0%
Cn1c(=O)c2c(SCC(=O)NCc3ccco3)nc(-c3ccccc3F)nc2n(C)c1=O | -4.6% | -22.1%
Cc1ccc(CNC(=O)CSCc2nc(-c3cccc(C)c3)oc2C)cc1 | -25.2% | 8.9%
Cc1cccc(N2CCN(c3nc4ccccc4c4nc(-c5cccnc5)nn34)CC2)c1C | -7.0% | 5.4%
O=C(Nc1ccc(OC(F)(F)F)cc1)C(Cc1ccccc1)NS(=O)(=O)c1cccc2nsnc12 (stereo not given) | ? | -36.6%
CCN(CC)CCNC(=O)c1sc2nc(C)cc(C)c2c1-n1cccc1 | 2.0% | -9.0%
COc1ccc(OC)c(C2NC(=O)NC(C)=C2C(=O)Nc2cc(C)cc(C)c2)c1 (stereo not given) | -8.0% | -0.3%
CCC(C)NC(=O)Cn1c(=O)n(CCCCCC(=O)NCc2ccccc2Cl)c(=O)c2sccc21 (stereo not given) | -18.2% | 2.1%
COC(=O)c1c(SC)nc2ccccc2c1OCc1ccccc1C | -27.4% | -27.9%
CCCCCCSc1nc(N)c2c3c(sc2n1)CCCC3C (stereo not given) | 38.8%[activator] | -33.8%
CC(=O)c1ccc(NC(=O)CCSc2nc(-c3ccco3)cc(C(F)(F)F)n2)cc1 | -6.5%[11.5 µM] | -98.2%
CCOc1ccc(NC(=O)Nc2nnc(N3CCCCC3C)s2)cc1 (stereo not given) | ? | -73.2%
CC(C)CCNC(=O)Cn1cc(S(=O)(=O)Cc2ccc(F)cc2)c2ccccc21 | -28.3% | -22.5%
CC(C)CCN(C(=O)Nc1ccc(Cl)c(Cl)c1)C1CCN(C(C)C)CC1 | ? | ?
Cc1ccc(Cn2cc(CCC(=O)NC3CCC(C)CC3)c3ccccc32)cc1 (stereo not given) | -23.9% | 1.4%
COc1ccc(NC(=O)c2cnc3cc(C)ccn3c2=O)c(OC)c1 | -6.1% | -9.4%
COCCCNC(=O)c1ccc(Cn2c(=O)c3ccccc3n(Cc3ccc(Cl)cc3)c2=O)cc1 | -1.5% | 11.3µM*
COC(=O)c1c(SCC(=O)Nc2cccc(Cl)c2C)[nH]c2ccccc2c1=O | -5.8% | -71.8%
COc1ccccc1N1CCN(S(=O)(=O)c2cc(C(=O)Nc3ccc(Oc4ccccc4)cc3)ccc2F)CC1 | 1.41µM* | ?
CCOC(=O)CCc1c(C)nc2cc(-c3cc(OC)cc(OC)c3)[nH]n2c1=O | 6.9% | 13.9%
N#Cc1cccc(NC(=O)CCNS(=O)(=O)c2ccc3c(c2)CCN3C(=O)C2CC2)c1 | -6.1% | ?
CCn1c(CNC(=O)c2ccc(OC)cc2)nnc1SCC(=O)Nc1ccc(OC)cc1 | 9.3% | -6.3%
CCc1ccc(NC(=O)C(=O)NCC(c2cccnc2)N2CCOCC2)cc1 (stereo not given) | -28.1% | -55.0%
CCOc1ccc(NS(=O)(=O)c2ccc3c(c2)NC(=O)CCS3)cc1 | ? | -17.0%
COc1ccc(C(c2c(O)cc(C)n(Cc3ccco3)c2=O)N2CCN(c3ccccc3)CC2)cc1 (stereo not given) | -11.3% | -127.6%
COC(=O)c1cc(NC(=O)[C@H](CCS(C)(=O)=O)N2Cc3ccccc3C2=O)cc(C(=O)OC)c1 | -17.3% | -1.8%
O=C(NCc1ccc(Cl)cc1)c1ccc2c(c1)nnn2C1CCCC1 | 10.3% | -31.7%
COc1ccc(CCNC(=O)c2cn(C)c3ccc(S(=O)(=O)N(C)C4CCCCC4)cc3c2=O)cc1OC | -16.9%[11.5 µM] | -15.6%
Cc1cc(NC(=O)CSc2nc(-c3ccccc3C)nc3c2c(=O)n(C)c(=O)n3C)no1 | -11.7% | -16.6%
Cc1c2cnn(CC(=O)NCc3ccc(Cl)cc3)c(=O)c2c(C)n1Cc1ccc(F)cc1 | -18.3% | -22.5%
CCC(C(=O)OCCN1CCOC(c2ccccc2)C1C)c1ccccc1 (stereo not given) | -13.5% | nt
CN(C)c1cccc(C(=O)Nc2nc3ccc(S(=O)(=O)NC(C)(C)C)cc3s2)c1 | -27.8% | ?
CC1=C(C(=O)N2CCN(c3cc(C)ccc3C)CC2)C2(CCC(C)CC2)OC1=O (stereo not given) | -9.9% | -10.8%
COc1cc(CN(C(=O)c2cc3ccccc3oc2=O)C2CCS(=O)(=O)C2)cc(OC)c1OC (stereo not given) | 6.5% | 10.2%

Two entries from above, field by field.
> O=C(NCc1ccc(Cl)cc1)c1ccc2c(c1)nnn2C1CCCC1
  HTT prom inh: 10.3%
  PMP22 txn: -31.7%
> COc1ccc(CCNC(=O)c2cn(C)c3ccc(S(=O)(=O)N(C)C4CCCCC4)cc3c2=O)cc1OC
  HTT prom inh: -16.9%[11.5 µM]
  PMP22 txn: -15.6%

The list continues.
Results follow in this order: HTT prom inh | PMP22 txn
- CCn1cc2nc(SCc3cccc(C(F)(F)F)c3)n(Cc3ccc(OC)cc3)c(=O)c2n1
  ? | ?
- CN(C)CCNC(=O)Cn1c(=O)c2cccn2c2ccc(F)cc21
  -2.3% | -27.9%
- Cc1ccc2c(=O)cc(C(=O)Nc3c(C)cccc3C)oc2c1
  ? | 24.1%
- COc1ccccc1-c1nnc2n(CCc3ccccc3)c(=O)c3ccccc3n12
  4.5% | ?
- Cc1nc2cc(-c3ccc(Cl)cc3)nn2c(C)c1CCC(=O)N1CCN(c2ccccc2)CC1
  1µM* | ?
- CCOc1ccc(C(=O)Nc2ccc3nc(SCC(=O)N4CCOCC4)sc3c2)cc1
  -24.7% | -8.4%
- CCOC(=O)c1ccc(NC(=O)c2cc3c([nH]c2=O)CC(c2ccccc2)CC3=O)cc1 (stereo not given)
  -0.3% | 19.8%
- CCCCCOC(=O)CSc1ncnc2c1sc1nc(N3CCOCC3)c3c(c12)CCCC3
  -3.6% | 19.4%
- Cc1ccc(NC(=O)N2CCc3cc(S(=O)(=O)N4CCC(C)CC4)ccc32)cc1
  -6.1% | ?
- COc1ccc(-c2ccc3c(N)c(C(=O)Nc4cccc(C)c4)sc3n2)cc1
  4.2% | 3.5%
- Nc1nc2c(ncn2COC(CO)CO)c(=O)[nH]1
  ? | nt
- CC(=O)NS(=O)(=O)c1ccc(N)cc1
  -2.5% | nt
- Cc1ccccc1Nc1cc(C(=O)NCCc2ccc(Cl)cc2)c2ccccc2n1
  -8.6% | -23.2%
- COc1ccc(NC(=O)C2=C(C)Nc3nc(SCc4ccccc4C)nn3C2c2cc(OC)c(O)c(OC)c2)cc1 (stereo not given)
  -7.2% | -1.6%
- CCOC(=O)c1cccc(NC(=O)C2CCCN(S(=O)(=O)c3ccc4c(c3)oc(=O)n4C)C2)c1 (stereo not given)
  ? | -8.4%
- CCC(=O)N1CCc2cc(Br)cc(S(=O)(=O)N3CCCC(C(=O)Nc4cccc(C)c4C)C3)c21 (stereo not given)
  -16.2% | ?
- COc1ccc(Nc2nc3c(S(=O)(=O)c4ccc(C)cc4)nnn3c3ccsc23)cc1Cl
  -5.6% | 8.97µM*
- Cc1ccc(OCC(=O)Nc2ccc(S(=O)(=O)Nc3ncccn3)cc2)c(C(C)(C)C)c1
  -12.2% | -19.9%
- COc1ccccc1N1CCN(C(=O)Nc2cn(CC(C)C)c(=O)c3ccccc23)CC1
  5.1% | -14.1%
- Cc1ccc(C)c(N2CCN(C(=O)CN3C(=O)COc4ccc(S(=O)(=O)N5CCCCCC5)cc43)CC2)c1
  -13.0% | ?
- COc1ccccc1CNC(=O)c1cc2cccc3c2n1CC(C)S3 (stereo not given)
  ? | ?
- COc1cccc(C2=CC(c3ccccc3F)n3ncc(C(=O)Nc4ccc(F)cc4)c3N2)c1 (stereo not given)
  ? | ?
- Cc1ccc(N2CC(NC(=O)c3cccc(Cl)c3)CC2=O)cc1C (stereo not given)
  ? | -3.1%
- COc1ccc(NC(=O)Cn2nnc(C(=O)NCc3ccccc3Cl)c2N)cc1Cl
  -29.2% | -0.7%
- COCCCNC(=O)CSC1=Nc2ccccc2C2=NC(CCC(=O)NCc3ccc(OC)cc3)C(=O)N12 (stereo not given)
  -19.8% | 5.5%
- COc1ccc(CC(=O)NCCc2sc(-c3cccc(F)c3)nc2C)cc1
  ? | ?
- Cc1ccc(C(=O)Nc2ccc(NC(=O)c3cccs3)cc2)cc1C
  -6.3% | -1.3%
- O=C(CSc1nc2c([nH]c3ccccc32)c(=O)n1-c1ccccc1)N1CCc2ccccc21
  -12.7% | ?
- CCCC(=O)Nc1cc2nn(-c3ccccc3)nc2cc1C
  77.7%[activator] | -9.0%
- COC(=O)c1cc2sc(C)cc2n1CC(=O)Nc1ccc(C)c(C)c1
  ? | -15.8%

Five structures already listed, ordered by heavy-atom count, smallest number first.
Results follow in this order: HTT prom inh | PMP22 txn
- Cc1ccc(C(=O)Nc2ccc(NC(=O)c3cccs3)cc2)cc1C
  -6.3% | -1.3%
- COc1ccc(CC(=O)NCCc2sc(-c3cccc(F)c3)nc2C)cc1
  ? | ?
- Cc1ccc(OCC(=O)Nc2ccc(S(=O)(=O)Nc3ncccn3)cc2)c(C(C)(C)C)c1
  -12.2% | -19.9%
- O=C(CSc1nc2c([nH]c3ccccc32)c(=O)n1-c1ccccc1)N1CCc2ccccc21
  -12.7% | ?
- COc1cccc(C2=CC(c3ccccc3F)n3ncc(C(=O)Nc4ccc(F)cc4)c3N2)c1 (stereo not given)
  ? | ?

Remaining list, next part
Results follow in this order: HTT prom inh | PMP22 txn
- Cc1ccc(Cl)cc1NC(=O)Cn1c(SCC(=O)NCc2ccccc2)nc2ccccc21
  -3.7% | 7.0%
- Cc1ccccc1CCNC(=O)c1ccc(Cn2c(=O)c3cccn3c3cccnc32)cc1
  ? | ?
- Cc1cccc(NC(=O)CCNS(=O)(=O)c2cccc3nonc23)c1
  1.3% | 3.4%
- O=C(NCCc1ccccc1)c1ccc2nc(N3CCCCC3)sc2c1
  ? | -7.6%
- COc1ccc(N(CC(=O)Nc2ccc(Cl)cc2C)S(=O)(=O)c2ccccc2)c(OC)c1
  -12.8% | ?
